# High-throughput results: PubChem, several laboratories
# PrP UTR inh = suppresses PrP 5' UTR mRNA reporter expression; inhibition, % (concentration not given with the values); 340,000 compounds, 0.35% hits; cell-based PrP 5' UTR mRNA reporter, plate reader;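 active = every replicate at 50% or more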;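 also: 0 = median of the neutral control wells; tested in H4 reporter cells; numbers are from one replicate; inactives centre near -14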
# Sa ugtP lethal = kills S. aureus RN4220 lacking UgtP; 330,000 compounds, 0.54% hits; growth inhibition, % (concentration not given with the values); S. aureus RN4220 ugtP deletion, OD600 growth, 16 h; some inactives read as strong as hits;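 active = z-score under -3 and OD600 up to 0.15 on both plates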;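 also: plate controls were untreated wells for no effect and antibiotic for full effect; wells of about 80 µL received 100 nL stock; the first replicate is given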
# Mtb hypoxia inh = Mtb hypoxia fluorescent reporter inhibition. M. tuberculosis hypoxia-regulated fluorescent reporter, fluorescence. fluorescence inhibition, % (concentration not given with the values). 300,000 compounds, 0.1% hits. AID 1159583;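 active = 35 to 45% if threefold the growth effect, above 45% if 1.5-fold the growth effect; inactive = the rest, general growth blockers included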;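 also: wells of about 50 µL received 100 nL stock; 0% = vehicle wells and 100% = reference inhibitor wells; whole bacteria with a GFP reporter of the hypoxia response; strong numbers were not always called active; many hits fall short of the cut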
# RN4220 kill = kills Staphylococcus aureus RN4220; inhibition, % (test concentration not listed); S. aureus RN4220 growth, OD600, 16 h; AID 1259311; 330,000 compounds, 0.33% hits;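 active = z-score of -3 or lower and OD600 up to 0.18 on both plates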;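 also: plate controls were untreated cells for no effect and reference antibiotic for full effect; stock transfer was 100 nL into about 80 µL; one replicate is shown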
# Bead autofluor = counter-screen for toxin protease inhibitors: compound fluorescence | compound autofluorescence counterscreen, microsphere flow cytometry; stronger effect = higher value | fluorescence intensity (test concentration not listed) | 360,000 compounds, 3.1% hits | AID 624483;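 active = at least 3 SD above the mean of all compounds, about 16000 in these data; inconclusive = too few beads counted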;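 also: 100 nL of 1 mM stock went into each well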
# BJeLR viability = BJeLR cell viability loss. inhibition, % (test concentration not listed). BJeLR (HRASV12) viability, CellTiter-Glo ATP luminescence, 48 h; reference of the scale not given here. AID 1554. 300,000 compounds, 0.17% hits;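 active = replicate mean above 50%; inconclusive = above 50% but judged a plate artefact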;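 also: 50 nL library stock added to about 25 µL; numbers are from one replicate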
# Mtb hypoxia inh growth = also measured in Mtb hypoxia inh; calls as there; growth inhibition, %; measured here: M. tuberculosis growth (absorbance);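 0% = vehicle and 100% = reference antibiotic; read after six days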
# * hit, by the source's call; ? = inconclusive; . = not tested or not shown.
molecule,PrP UTR inh,Sa ugtP lethal,Mtb hypoxia inh,Mtb hypoxia inh growth,RN4220 kill,Bead autofluor,BJeLR viability
O=C(NCCN1CCOCC1)c1cc([N+](=O)[O-])ccc1Cl,-31,7,8,11,1.5,3750,0
Cc1ccc(C)c(Nc2ccc3nonc3c2[N+](=O)[O-])c1,11,8,-1,-3,3.6,2934,2
CC(=O)N1CCN(C(=O)CSc2ncnc3sc(C)c(C)c23)CC1,-16,5,23,13,2.1,4342,.
O=C(CSc1nnc(-c2cccnc2)n1-c1ccccc1)Nc1ccc2c(c1)OCO2,-8,-4,15,3,2.1,5689,-2
Cc1ccc(C(=O)OCC(=O)NCc2ccccc2)cc1S(=O)(=O)N1CCCCC1,-6,4,8,7,3.5,3498,.
CCOc1ccccc1CNC(=O)CCn1ccc2cc(S(=O)(=O)N3CCCCC3)ccc21,-15,0,8,4,4.3,5525,-9
Cc1ccc(C(c2nnnn2C2CCCCC2)N(C)C2CCCCC2)cc1 (configuration not stated),-16,3,14,1,3.0,7015,2
Cc1nc(Cl)sc1C(=O)Nc1ccccc1Cl,-10,2,11,-3,7.3,3817,15
CCn1c(SCC(=O)NN=C/C=C/c2ccccc2[N+](=O)[O-])nnc1-c1ccccc1,.,3,7,4,2.2,.,.
O=C(Nc1ccccc1-c1ccccc1)c1ccc(=O)[nH]n1,-21,12,15,10,4.7,3051,-1
COCc1nc2ccccc2n1Cc1cccc(C)c1,-17,4,7,6,2.1,16897*,-3
CN(Cc1ccccc1)C(=O)c1ccc2c(c1)NC(=O)C(N1CCOCC1)S2 (configuration not stated),4,9,8,1,3.3,6128,4
O=C(NCc1ccc2c(c1)OCO2)c1nc(Cn2cc(Br)cn2)no1,-22,12,9,4,3.5,3578,5
C=CCn1nc(-c2ccccc2)cc1C(=O)OCC,-8,-21,7,4,2.3,4186,-10
COc1ccc(CNn2cnnc2)c(O)c1,-13,3,2,-10,3.0,4000,3
Cc1ccsc1C(=O)C1CCCN(Cc2c(C)nn(C(C)C)c2C)C1 (configuration not stated),3,3,9,8,2.3,5106,3
O=C(O)CCCCCNS(=O)(=O)c1cccc2nsnc12,-22,-3,5,4,0.6,8853,-5
Cc1cccn2c(=O)c(/C=C(\C#N)C(=O)NCc3ccco3)c(N3CCOCC3)nc12,.,5,12,16,4.2,4498,-4
O=C(N/N=C/c1c[nH]c2ccccc12)C1CC1(c1ccccc1)c1ccccc1 (configuration not stated),-11,.,.,.,.,10995,2
CC(C)Cn1c(=O)oc2ccccc21,-8,-3,2,-10,1.9,2506,0
Cc1cc(NC(=O)CSc2nc3c(cc2C#N)CCCC3)no1,-150,1,6,1,3.3,2775,2
CCOC(=O)CCNC(=O)N1CCCC(C(=O)c2ccc3c(c2)OCO3)C1 (configuration not stated),-27,8,1,3,2.2,2662,-2
O=C(NCc1ccccc1F)C1CC(=O)N(c2ccc3c(c2)OCCO3)C1 (configuration not stated),-8,2,-10,0,-2.7,?,0
CCOC(=O)c1ccc(NC(=O)Cn2c(C)nc3c(sc(=S)n3CC)c2=O)cc1,0,-8,-3,2,2.7,5718,-8
COC(=O)/C(=C1/Oc2cc(C)oc(=O)c2S1)C(F)(F)F,0,.,.,.,.,21329*,12
CCc1c(C#N)c(SCCC(=O)Nc2ccc(OC)cc2)nc2c1C(=O)CC(C)(C)C2,-29,0,14,2,5.7,3522,2
O=C(COc1ccc(Br)cc1)Nc1ccc(Cc2ccncc2)cc1,-5,17,2,3,6.7,4153,-2
CCn1ncc(Br)c1C(=O)N(C)C12CC3CC(CC(C3)C1)C2,-17,-7,19,15,1.2,3059,8
CC(C)c1c(C(=O)N/N=C/c2cccc(OCc3ccc(F)cc3)c2)nnn1-c1nonc1N,-6,.,.,.,.,4504,-12
CC1Cc2cc(S(=O)(=O)CCC(=O)N3CCN(c4ccccc4)CC3)ccc2N1C(=O)C1CC1 (configuration not stated),-18,1,-5,-2,-0.7,4382,4
CC(=NNc1ccc(Cl)c(C(=O)O)c1)c1ccccn1,.,-4,5,14,4.2,.,.
COc1cccc(OC)c1NC(=O)C1CCCN1C(=O)Nc1ccccc1F (configuration not stated),-24,13,-2,2,3.0,3866,-3
Cc1ccc(CNC(=O)c2ccccc2NS(=O)(=O)c2ccc(Cl)nc2)cc1,-14,27,2,4,30,5408,15
COc1ccc(NC(=O)CSc2nnc(CN3CCOCC3)n2C)cc1Cl,-12,-7,-7,8,-2.2,6077,1
COc1ccc(C(=O)NCC(c2cccs2)N2CCc3ccccc32)cc1OC (configuration not stated),-1,8,6,0,-0.1,5715,-1
COc1ccc(C)cc1Nc1n[n+](-c2ccccc2)c(-c2ccc(SC)cc2)s1,-9,4,21,24,2.5,2890,7
Cc1ccc(C)c(S(=O)(=O)N2CCN(C(=O)CN3C(=O)NC(C)(C)C3=O)CC2)c1,-5,3,9,9,5.1,5753,.
COc1ccc(C(=O)OCC(=O)N2CCc3ccccc32)cc1S(=O)(=O)N1CCOCC1,-7,5,0,11,1.1,3681,.
CC(c1ccccc1)n1cncc1C(=O)N1CCCC1=O (configuration not stated),-20,-1,0,-2,0.7,9618,0
FC(F)(F)c1cccc(N2CCN(Cc3ccoc3)CC2)c1,1,10,-6,16,4.9,10628,7
COc1ccc(-c2ccc(SCC(=O)N3c4ccccc4CC3C)nn2)cc1OC (configuration not stated),-18,-2,12,7,6.7,6499,-16
NC(=O)C[n+]1cccc(/C=N/O)c1,-25,.,.,.,.,4528,-3
Cc1ccc(C2=CC(c3ccccc3)n3ncnc3N2)c(C)c1 (configuration not stated),-8,-13,10,9,8.2,3837,1
COc1ccc(NC(=O)CCCNS(=O)(=O)c2cccs2)cc1,-5,4,7,5,2.2,9128,-16
O=C(c1ccco1)N1CCN(CCOc2ccccc2)CC1,-22,23,16,1,2.4,4419,-3
COC(=O)c1c(C(=O)c2ccc(Br)cc2)n(C)c2ccccc12,-15,28,11,8,2.3,?,.
O=C(O)CCCn1ccc2cc(S(=O)(=O)N3CCCC3)ccc21,-10,2,-4,8,2.0,4358,3
NC(=O)CC(NC(=O)Cc1cccc2ccccc12)c1ccc(NCCN2CCCC2)c([N+](=O)[O-])c1 (configuration not stated),-25,0,8,7,3.0,3567,15
Cc1noc2ncnc(Sc3ccc(Br)cc3)c12,-6,-2,15,12,21,5439,3
Cc1ccc(CNC(=O)C2CCCN2C(=O)Nc2ccc(C)cc2)cc1 (configuration not stated),-13,2,7,0,-2.7,3392,-4
COc1cccc(NC(=O)CN(C)C(=O)Cc2ccc3c(c2)CCC3)c1,-33,4,11,10,2.9,3725,.
CSc1nc(N2CCOCC2)c2c(c1C#N)CCCCC2,-12,16,14,6,0.3,2643,-4
COc1ccc(Cn2c(=N)c(C(=O)NCC3CCCO3)cc3c(=O)n4ccccc4nc32)cc1 (configuration not stated),-11,10,.,.,-0.3,4267,-6
O=C(CC1CCCC1)N1CCN(S(=O)(=O)c2cccc(F)c2)CC1,-18,7,-8,4,4.5,5503,.
CCN(Cc1ccccc1)C(=S)Nc1cc(C(=O)OC)ccc1C(=O)OC,-25,6,4,3,3.0,8403,4
CCC(C)(C)n1nnnc1C(c1ccc(C)cc1)N1CCN(C(=O)c2ccco2)CC1 (configuration not stated),5,1,.,.,0.3,3199,-5
O=[N+]([O-])c1cccc(C2=NCCC(c3ccccc3)O2)c1 (configuration not stated),-13,-13,8,9,3.5,3075,7
O=C(COC(=O)c1cc[n+]([O-])cc1)Nc1ccc([N+](=O)[O-])cc1C(F)(F)F,-24,2,-2,6,4.6,5096,.
O=C(Oc1ccccc1)c1ccc2c(c1)C(=O)N(Cc1ccncc1)C2=O,-8,16,5,11,3.8,6267,-5
CCOc1cccc(C(=O)NC2CCCCC2)c1,-48,-3,22,17,3.1,5737,-8

# (next part)
molecule,PrP UTR inh,Sa ugtP lethal,Mtb hypoxia inh,Mtb hypoxia inh growth,RN4220 kill,Bead autofluor,BJeLR viability
CCCCN(CC)CCNC(=O)c1cc2cc3ccc(Cl)cc3nc2o1,14,9,13,7,-0.6,3642,-2
NS(=O)(=O)c1ccc(CCNC(=O)CCC(=O)c2cccs2)cc1,-31,3,0,2,3.0,5520,.
Cc1ccc(OCC(=O)Nc2ccc(C)c(S(=O)(=O)N3CCCCC3)c2)c([N+](=O)[O-])n1,-8,.,.,.,.,2658,-13
Cc1ccc(S(=O)(=O)NN=Cc2c(F)cccc2Cl)cc1,.,4,-2,10,6.4,.,.
CN1CCN(CCC(=O)N/N=C/C=C2\N(C)c3ccccc3C2(C)C)CC1,-27,.,.,.,.,5723,-2
CCCNS(=O)(=O)c1cccc(C(=O)NNC(=O)c2cc(C)oc2C)c1,-7,5,-6,2,1.3,.,-3
CCOC(=O)Cn1c(O)c(N=NC(=O)OC)c2ccccc21,-22,-1,15,-2,3.9,4960,-3
Cc1ccsc1C(=O)N(C)CC(=O)N(CC(C)C)c1c(N)n(CC(C)C)c(=O)[nH]c1=O,-11,-2,-12,0,0.4,?,-7
Brc1ccsc1C=NNc1ccccc1,.,25,-10,0,0.4,.,.
Cc1ccccc1N(CC(=O)NN=Cc1ccccc1Cl)C(=O)c1ccccc1,.,13,7,1,1.0,.,.
COc1ccc(C(=O)C2CCCN(C(=O)CCNC(C)=O)C2)cc1OC (configuration not stated),-17,8,1,2,3.9,2968,5
CN(C)C=Nc1nonc1-c1ccccc1,2,3,-2,-11,3.1,6004,-14
Cc1ccc(S(=O)(=O)N2CCOCC2)cc1C(=O)NCc1cccnc1,-3,1,18,6,-0.5,9213,13
CCCCC1=CC2=CC(=O)C(C)(OC(=O)CC)C(=O)C2=CN1CCc1ccc(Br)cc1 (configuration not stated),-9,.,.,.,.,3640,-1
Cc1ccsc1S(=O)(=O)N1CCC(CO)(CC2CCCCO2)CC1 (configuration not stated),-10,11,8,6,3.4,3140,16

# One compound at a time, as listed above.
# Shown for Brc1ccsc1C=NNc1ccccc1 : PrP UTR inh = .; Sa ugtP lethal = 25; Mtb hypoxia inh = -10; Mtb hypoxia inh growth = 0; RN4220 kill = 0.4; Bead autofluor = .; BJeLR viability = .
# Shown for Cc1ccsc1S(=O)(=O)N1CCC(CO)(CC2CCCCO2)CC1 (configuration not stated) : PrP UTR inh = -10; Sa ugtP lethal = 11; Mtb hypoxia inh = 8; Mtb hypoxia inh growth = 6; RN4220 kill = 3.4; Bead autofluor = 3140; BJeLR viability = 16

# (next part)
molecule,PrP UTR inh,Sa ugtP lethal,Mtb hypoxia inh,Mtb hypoxia inh growth,RN4220 kill,Bead autofluor,BJeLR viability
NCCC(=O)N1c2ccccc2Sc2ccccc21,-3,14,0,2,5.6,4134,3
CCOC(=O)c1cc(NC(=O)CN2CCCC2)cc(C(=O)OCC)c1,8,19,1,-5,3.9,2868,-5
COc1ccc(S(=O)(=O)N2CCC3(CC2)CC(=O)c2ccccc2O3)cc1OC,-15,5,-4,-2,2.1,4310,3
CC(C)NC(=O)c1cnn2c1NC(c1cccs1)CC2C(F)(F)F (configuration not stated),4,5,-1,-3,1.0,2863,6
CCOC(=O)Cc1csc(SCC(=O)NC2CCS(=O)(=O)C2)n1 (configuration not stated),-9,2,-12,0,1.2,3827,.
Cc1nnc(SCC(=O)O)o1,-19,-2,-7,3,2.3,4603,-3
CC(C)CC(=O)Nc1cccc(C(=O)Nc2ccccc2C(=O)O)c1,-5,3,2,3,2.0,10639,3
COc1ccc2[nH]c(=O)c(CN(CC3CCCO3)C(=S)Nc3ccccc3)cc2c1 (configuration not stated),-18,1,3,2,2.2,3701,-22
CCOC(=O)c1sc(N2N=C(C)C(N=Nc3cccc(C)c3)C2=O)nc1C (configuration not stated),-12,3,4,1,15,6493,-2
Cc1ccc(C(C)NC(=O)CSc2ccc(S(=O)(=O)N3CCOCC3)cn2)cc1C (configuration not stated),-28,0,2,9,-1.3,4149,.
